Screening data from PubChem.
Sfp PPTase inh = qHTS Assay for Inhibitors of Bacillus subtilis Sfp phosphopantetheinyl transferase (PPTase); 4'-phosphopantetheinyl transferase ffp (Bacillus subtilis), Q9F4F7; Biochemical Sfp PPTase activity, qHTS; Potency, µM, for inactives: max response, negative = inhibition, usual class: inhibitors; actives 3.5% (n = 310,000); AID 1490, 2009; active means well fitted inhibition curve with a large enough effect; inconclusive means small, poorly fitted or top-dose-only effect, or another doubt; inactive means no such curve, though single readings can be large or run the other way;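 further: the enzyme is Sfp with the accession as filed and its product quenches rhodamine fluorescence; potency means the concentration at half of the fitted maximal effect; 0% = enzyme reaction without inhibitor and -100% = no enzyme wells; top concentration of the series not given in the record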
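Buffer: 50 mM Hepes-Na pH 7.6, 10 mM MgCl2, 0.01% Nonidet P-40, 0.01% BSA. Enzyme 15 nM, pre-exposed to compound 15 min; substrates then added and fluorescence change tracked over 30 min.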
D2 ag = Beta-Arrestin HTS for Positive Allosteric Modulators of the Human D2 Dopamine Receptor: Agonists. activation, % (concentration not given with the values). D(2) dopamine receptor (Homo sapiens), P14416. AID 624465, 2012. actives 0.084% (n = 360,000). DiscoveRx PathHunter D2 beta-arrestin, luminescence, 90 min; 100% = 57 uM dopamine signal; in the data active = activation above about 40%; inconclusive = about 15% to 40%; inactive = below about 15%; further: compound concentration not given in the record; the text of the record calls up to 30% inactive
Target sequence (P14416 whole entry, looked up): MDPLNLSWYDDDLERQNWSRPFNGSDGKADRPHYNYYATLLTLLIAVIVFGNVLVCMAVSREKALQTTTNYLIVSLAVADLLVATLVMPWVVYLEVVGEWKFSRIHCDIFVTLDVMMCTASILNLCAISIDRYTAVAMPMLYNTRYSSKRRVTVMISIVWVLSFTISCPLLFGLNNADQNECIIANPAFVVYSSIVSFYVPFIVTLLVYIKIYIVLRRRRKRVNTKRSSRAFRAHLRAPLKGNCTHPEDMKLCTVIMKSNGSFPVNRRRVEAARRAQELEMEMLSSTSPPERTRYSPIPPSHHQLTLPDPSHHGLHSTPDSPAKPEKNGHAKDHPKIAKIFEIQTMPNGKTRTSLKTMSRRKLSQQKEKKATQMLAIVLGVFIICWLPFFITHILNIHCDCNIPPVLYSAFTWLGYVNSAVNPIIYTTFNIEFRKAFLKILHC
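Agonist mode: compounds alone added to overnight-plated D2 PathHunter cells for 90 min at 37 C, with 57 uM final dopamine (EC100) defining full response. Beta-arrestin recruitment detected by chemiluminescent reagent, read after 1 h at ambient temperature.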
ClpP mod = qHTS Assay for Activators of ClpP | ATP-dependent Clp protease proteolytic subunit (Bacillus subtilis (strain 168)), P80244 | purified B. subtilis ClpP, FRET peptide cleavage, 20 min | Potency, µM (titrated, usually from 57.5 µM), inactives show at the highest dose activity change, negative = active | actives 1.9% (n = 340,000) | AID 651965, 2013; active = well fitted falling curve with a large enough effect; inconclusive = small, poorly fitted or top-dose-only effect; inactive = no such curve, though single readings can be large or run the other way; further: potency means the concentration at half of the fitted maximal effect; the source files actives as falling curves though it sought activators and does not explain the sign; nearly all actives have a fitted effect of over 65% in size; many hits overshoot -100%
Target sequence (P80244 whole entry, looked up): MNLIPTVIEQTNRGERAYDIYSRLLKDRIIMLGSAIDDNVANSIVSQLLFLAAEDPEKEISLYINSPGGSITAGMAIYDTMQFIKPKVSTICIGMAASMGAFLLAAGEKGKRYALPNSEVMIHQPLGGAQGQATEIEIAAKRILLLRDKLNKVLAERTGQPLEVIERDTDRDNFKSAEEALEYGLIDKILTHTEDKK
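Purified B. subtilis ClpP, 10 microg/mL final in Tris/HCl pH8 with KCl, BSA, glycerol and Tween-20, cleaved an Abz/nitrotyrosine-quenched decapeptide. Fluorescence (ex 320, em 430) was read at 0 and 20 min at room temperature. Delta was normalized to 5.8 microM ADEP and DMSO/no-enzyme controls.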
Menin-MLL FL inh = qHTS Assay for Inhibitors Targeting the Menin-MLL Interaction in MLL Related Leukemias: Competition With Fluorescein Labeled MLL-derived Peptide; 290,000 tested, under 10 active; AID 1766, 2009; FP activity change, % at 61.4 µM; Fluorescence polarization, fluorescein-MLL peptide displacement from menin; inconclusive = falling polarisation curve, or a change in total fluorescence; inactive = total fluorescence flat and polarisation flat or rising; no compound was filed as active; the % refers to the polarisation; negative = inhibition;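 further: % of control where 0% means no effect; inhibitors lower the polarisation; unlabelled MLL peptide was the positive control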
gsp antagonist = qHTS for Antagonists of gsp, the Etiologic Mutation Responsible for Fibrous Dysplasia/McCune-Albright Syndrome: qHTS | actives 0.4% (n = 340,000) | gsp-mutant cells, cAMP HTRF, 30 min; control for the full effect not named in the record | AID 624288, 2012 | Potency, µM (titrated, usually from 76.9 µM), inactives show at the highest dose activity change, negative = inhibition, actives largely listed as inhibitors; active = falling curve of any shape with a large fitted effect; inconclusive = falling curve, mostly with a smaller effect; inactive = flat or rising curve; cell line not stated here;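 further: intracellular cAMP measured with PDE inhibitor Ro 20-1724 present during compound exposure; potency means the concentration at half of the fitted maximal effect; on the % scale 0 is the no-effect control and ±100 the full control effect; nearly all actives have a fitted effect of over 65% in size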
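Cells, 2000/well, grown 16–24 h in DMEM 10% FBS with 0.5 mg/ml G418, then compounds plus […] (300 uM addition stock), 30 min at 37C. cAMP read by HTRF (cAMP-d2 and anti-cAMP antibody-K in lysis buffer) after 30 min RT.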
gsp agonist = qHTS for Agonist of gsp, the Etiologic Mutation Responsible for Fibrous Dysplasia/McCune-Albright Syndrome: qHTS | gsp mutant cells, cAMP HTRF, 30 min; control for the full effect not named in the record | Potency, µM (top dose mostly 76.9 µM), without a hit: at the highest dose activation (cAMP increase), actives largely listed as activators | actives 0.13% (n = 340,000) | AID 624287, 2012; active = well fitted activation curve with a large enough effect; inconclusive = small, poorly fitted or top-dose-only effect, or another doubt; inactive = no such curve, though single readings can be large or run the other way; cell line not stated here;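 further: phosphodiesterase inhibitor Ro 20-1724 added with compounds to block cAMP breakdown; potency means the concentration at half of the fitted maximal effect; nearly all actives have a fitted effect of over 60% in size; about a fifth of the inactives were tested at one dose only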
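Cells in DMEM/10% FBS with G418 were pretreated with compounds in DMSO plus […] (300 uM stock) for 30 min at 37C. cAMP was measured by HTRF (cAMP-d2 plus anti-cAMP antibody-K) after 30 min at room temperature.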
PINK1 expr mod = A Quantitative High throughput Screen to Identify Chemical Modulators of PINK1 Expression; PINK1 immunofluorescence, high-content cytometry, 24 h; Potency, µM (series often up to 76.6 µM), for the others: top-dose activation (PINK1 increase), most hits filed as activators; actives 0.2% (n = 410,000); active = well fitted activation curve with a large enough effect; inconclusive = small, poorly fitted or top-dose-only effect; inactive = flat fitted curve, though single readings scatter; cell line not stated here;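 further: potency means the concentration at half of the fitted maximal effect; % of control where 0% means no effect; nearly all actives have a fitted effect of over 65% in size; a mitochondrial uncoupler was the plate control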
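A stable cell line was treated with compounds at 5 concentrations for 24 hours, with CCCP as control. PINK1 levels and mitochondrial localization were measured by immunofluorescence with mitochondrial, cell and nuclear markers after fixation, read by laser-scanning cytometry.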
Starred values were filed as active, the others as inactive; ? = inconclusive; . = not tested or not shown; & = joins results of further samples; [ ] = remark or other dose.

The first three compounds as a preview:
SMILES	Sfp PPTase inh	D2 ag	ClpP mod	Menin-MLL FL inh	gsp antagonist	gsp agonist	PINK1 expr mod
Cc1n[nH]c(C)c1N=Nc1cc(Cl)ccc1Cl	-1%	-1.4	-0.4%	1.8	-11%	26%	-3.0%
CCN(CC)CCC(C)OC(c1ccccc1)c1ccccc1 (centres undefined)	17%	-2.4	0.6%	-0.8	10%	-23%	0.7%
CCCCOC(=O)/C(=C/c1cn(C)c2ccccc12)NC(=O)c1ccc(OC)cc1	0%	-5.3	0.5%	-0.1	5%	10%[15.4 µM]	2.9%

All compounds of this part, repeating the preview:
SMILES	Sfp PPTase inh	D2 ag	ClpP mod	Menin-MLL FL inh	gsp antagonist	gsp agonist	PINK1 expr mod
Cc1n[nH]c(C)c1N=Nc1cc(Cl)ccc1Cl	-1%	-1.4	-0.4%	1.8	-11%	26%	-3.0%
CCN(CC)CCC(C)OC(c1ccccc1)c1ccccc1 (centres undefined)	17%	-2.4	0.6%	-0.8	10%	-23%	0.7%
CCCCOC(=O)/C(=C/c1cn(C)c2ccccc12)NC(=O)c1ccc(OC)cc1	0%	-5.3	0.5%	-0.1	5%	10%[15.4 µM]	2.9%
CCCCS(=O)c1snnc1C (centres undefined)	19%	1.9	.	-4.2	14%	-2%[15.4 µM]	-1.1%
COc1ccccc1CN(C)C(=O)c1ccccc1Sc1ccccc1C#N	10%	7.7	0.9%	.	?	1%	2.9%
C/C(=N\NC(=S)NC(C)C)c1ccco1	-16%	-2.5	-5.5%	5.1	5%	-7%[15.4 µM]	-0.3%
COc1ccc(NS(=O)(=O)c2nnc(NC(=O)c3ccccc3F)s2)cc1	33%[activator]	-1.2	-3.1%&0.0%	0.6	-11%	6%	2.3%&-0.2%
Cc1c(CC(=O)O)c(=O)oc2cc(OCc3nn[nH]n3)ccc12	-2%	-2.7	-8.5%	-1.4	6%	24%	-2.2%
CS(=O)(=O)Nc1cccc(-c2ccc3ncnc(NCc4cccs4)c3c2)c1	24%	.	.	1.1	.	.	1.2%
O=c1oc2cc(O)ccc2c2ccccc12	7%	-3.2	96%	4.3	13%	8.9µM*	0.8%
CC1CC(C)CN(C(=O)CSc2nnc3ccccn23)C1 (centres undefined)	.	6.7	?	.	8%	10%	-0.5%
CC1CC(C)CN(C(=O)CCCNC(=O)c2ccc(Cl)cc2)C1 (centres undefined)	14%	-3.6	-0.5%	.	2%	-43%	2.7%
CC(CCc1ccccc1)NC(=O)CCc1cn(C)c2ccccc12 (centres undefined)	4%	-2.5	.	-1.9	1%	5%	1.5%
Cc1cccc(-c2cc3nc(C)cc(=O)n3[nH]2)c1	.	-0.8	4.1%	.	.	-42%[inhibitor]	2.5%
COc1cccc(-c2nc(NCCN3CCOCC3)c3ccccc3n2)c1	9%	.	.	0.1	.	.	-0.2%
CCN1C(=O)[C@H]2[C@@H](c3ccc(C)cc3)N3C(=O)N(c4cccc(Br)c4)C(=O)[C@@]3(Cc3ccccc3)[C@H]2C1=O	.	-2.3	1.2%	.	-3%	?	1.3%
[O-][n+]1ccc(C2CC2)cc1	7%	-2.2	1.5%	0.7	13%	?	-0.8%
Cc1nn(C(C)C)c(C)c1CN1CCCC(CCC(=O)NCc2ccccc2F)C1 (centres undefined)	-8%	-5.7	.	1.5	7%	5%[15.4 µM]	1.2%
COc1ccc(N2C(=O)C(Cl)=C(Nc3c(C)n(C)n(-c4ccccc4)c3=O)C2=O)cc1	45µM*	-1.2	-0.6%	0.7	-10%	-28%	1.0%[38.3 µM]
O=C(CCl)Nc1nc(-c2ccco2)c(-c2ccco2)s1	45µM*	2.2	-4.0%	16	?	-23%	-2.0%
CCCc1cc(=O)[nH]c(SCc2ccccc2Cl)n1	15%	-0.1	-5.5%	2.5	6%	?	.
Cc1cc(C)cc(NC(=O)CCNC(=O)c2ccc([N+](=O)[O-])cc2)c1	-2%	4.1	0.4%	2.4	9%	?	3.3%
O=C(Nc1ccc(F)cc1F)c1csc(-c2ccccc2)n1	-9%	0.9	.	-3.4	-14%	-16%[15.4 µM]	3.0%
C=CCCC(=O)N1C[C@@H](CO)[C@@H](NC)C[C@H]1c1ccccc1Br	.	-4.8	-4.9%	.	.	.	-0.8%
COc1ccc(CCCNC(=O)C2(C)Cc3c(-c4cccc(C(N)=O)c4)ccnc3O2)cc1 (centres undefined)	.	76*	-4.6%	.	.	.	9.8%
CCC(=O)NCCc1nc2cc(NC(=O)c3cccs3)ccc2n1C	12%	-0.6	.	-4.9	11%	-4%[15.4 µM]	2.2%
CCC(C)[C@H](NC(=O)[C@@H]1CSC2c3ccccc3C(=O)N21)C(=O)N1CCCCC1 (some centres undefined)	7%	0.7	0.3%	.	-4%	?	1.1%
CC(C)Oc1ccc(S(=O)(=O)N2CCOCC2)cc1NC(=O)CC1CCCC1	.	1.8	-1.2%	.	-8%	7%	3.1%
O=C(Nc1ccccc1)c1ccccc1OCc1ccc(F)cc1	16%	-3.9	102%	-3.0	-9%	?	9.8%
O=C(O)c1ccc(CSc2nc(-c3ccccc3)cc(C(F)(F)F)n2)cc1	-4%	2.8	1.2%	3.7	-18%	-26%[15.4 µM]	-0.9%
Cc1ccc(C(=O)C2=C(O)C(=O)N(CCCn3ccnc3)C2c2ccc(OC(C)C)cc2)o1 (centres undefined)	10%	1.2	-1.7%	5.6	23%	?	.
OC(CNCc1ccc2c(c1)OCO2)COc1ccc(F)cc1 (centres undefined)	11%	-0.3	1.1%	-1.0	8%	18%	0.0%
CCOc1ccc(C(=O)CCC(=O)Nc2ccc(C)c(S(=O)(=O)N3CCCCC3)c2)cc1	.	2.5	-3.1%	.	-14%	-44%[inhibitor]	5.6%
CC(=O)Nc1ccc(-c2csc(Nc3cccc(C)n3)n2)cc1	-12%	3.0	.	0.5	-5%	-10%[15.4 µM]	9.0%
COc1cccc(/C=N/n2c(=O)[nH]c3ccccc32)c1OC	10%	0.3	4.2%	-2.2	-12%	1%	9.5%
COc1ccc(NC(=O)CSCc2ccc([N+](=O)[O-])cc2)cc1OC	7%	2.0	0.8%	-10	-2%	12%[15.4 µM]	-0.6%
O=C(NC(=S)Nc1ccc(O)cc1)c1ccccc1Cl	-20%	-0.1	1.6%	6.1	-3%	-20%	-0.7%
Cc1cc(C)nc(SCC(=O)NNC(=O)c2ccccc2C)n1	13%	-2.5	-1.7%	-2.5	6%	24%	1.2%
COc1ccc(C(C(=O)NC2CCCC2)N(CC2CCCO2)C(=O)Cn2nnc(-c3ccc(C)o3)n2)cc1 (centres undefined)	10%	-4.5	-0.4%	2.1	-3%	?	2.0%
O=C1CN(C(=O)COC(=O)/C=C/c2ccco2)c2ccccc2N1	-23%	-3.8	-3.4%	3.0	-5%	7%[15.4 µM]	-0.1%
COc1ccc(N(C(=O)c2ccco2)C(C(=O)NC2CCCC2)c2cccnc2)c(OC)c1 (centres undefined)	19%	0.4	.	-19	-3%	7%[15.4 µM]	2.3%
O=C(O)CSCC(=O)c1ccccc1	-18%	-1.8	0.6%	3.6	8%	-20%	0.0%[38.3 µM]
Cc1ccccc1C(=O)NNC(=O)CSc1nc(-c2ccccc2)cc(=O)[nH]1	-12%	-6.0	.	2.6	-4%	0%[15.4 µM]	0.3%
OC(COc1ccc2ccccc2c1)CN1CCN(c2ccc(F)cc2)CC1 (centres undefined)	4%	0.8	-9.6%	4.7	5%	28%	?
CCSc1nnc(NC(=O)CSc2nc3c(c(=O)n2-c2ccccc2OC)SCC3)s1	16%	-0.4	2.5%	-7.3	-25%	-1%	0.3%[38.3 µM]
Cc1cc(/C=C(\C#N)C(=O)O)c(C)n1C1CC1	10%	-3.4	-4.0%	0.9	3%	20%	1.3%
COc1ccc2oc(C)c(C(=O)c3ccccc3)c2c1	.	-3.9	.	.	-2%	-2%[15.4 µM]	0.6%
COC(=O)C1CCN(C(=O)c2c(-c3ccccc3Cl)noc2C)CC1	4%	-0.6	0.0%	0.3	5%	1%	-0.8%
COC(=O)c1ccccc1NC(=O)CN1CCOCC1	15%	3.1	-2.0%	1.4	6%	-22%	-1.7%
CCC(=O)N1CCC(C)(C(=O)Nc2ccc3c(c2)OCO3)C1 (centres undefined)	.	-2.9	-1.5%	.	.	.	2.6%
COc1cc(/C=N/N=C2/NC(=O)C(CC(=O)O)S2)ccc1OCc1ccc(Cl)cc1 (centres undefined)	-5%	0.7	-3.3%	2.6	1%	-24%	3.3%
COc1ccc(OC)c(-c2c3cc(O)c(=O)cc-3oc3cc(O)c(O)cc23)c1	11µM*	-6.8	0.6%	?	-21%	-15%[15.4 µM]	6.3%
Cc1ccccc1N1C(=O)CC(Sc2nnc(-c3ccccc3)o2)C1=O (centres undefined)	10µM*	-6.0	12%	-2.6	29%	?	1.8%
CC[C@]1(C(=O)OC)[C@H]2C(=O)N(Cc3ccccc3)C(=O)[C@H]2[C@H]2CN=C(SC)N21	.	-1.3	0.5%	.	14%	.	-0.6%
CCOc1ccc(NC(=O)CN2CCCC2c2cccs2)cc1S(=O)(=O)N1CCCCC1 (centres undefined)	.	-2.7	0.1%	.	-23%	-8%	1.3%
NS(=O)(=O)c1cc2c(cc1Cl)NC=NS2(=O)=O	27%&6%&4%&9%	5.8	0.7%	2.0	6%	.	-0.5%
